AF4-AF9 inh: MLL-AF4/AF9 protein interaction inhibition. hit rate 0.47% among 350,000. AlphaScreen, biotin-AF4 peptide binding to FLAG-AF9. inhibition, % at 10 µM;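 active = every replicate reaching a set inhibition limit, whatever the replicate mean, cut at about 25% in these data; inconclusive = mean inhibition reaches that limit but some replicates miss it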;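 also: 0% = plate neutral control median and 100% = total signal loss; the record names both 10 and 1 µM as test concentration; the first replicate is given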
Target sequence (P42568 whole entry, looked up): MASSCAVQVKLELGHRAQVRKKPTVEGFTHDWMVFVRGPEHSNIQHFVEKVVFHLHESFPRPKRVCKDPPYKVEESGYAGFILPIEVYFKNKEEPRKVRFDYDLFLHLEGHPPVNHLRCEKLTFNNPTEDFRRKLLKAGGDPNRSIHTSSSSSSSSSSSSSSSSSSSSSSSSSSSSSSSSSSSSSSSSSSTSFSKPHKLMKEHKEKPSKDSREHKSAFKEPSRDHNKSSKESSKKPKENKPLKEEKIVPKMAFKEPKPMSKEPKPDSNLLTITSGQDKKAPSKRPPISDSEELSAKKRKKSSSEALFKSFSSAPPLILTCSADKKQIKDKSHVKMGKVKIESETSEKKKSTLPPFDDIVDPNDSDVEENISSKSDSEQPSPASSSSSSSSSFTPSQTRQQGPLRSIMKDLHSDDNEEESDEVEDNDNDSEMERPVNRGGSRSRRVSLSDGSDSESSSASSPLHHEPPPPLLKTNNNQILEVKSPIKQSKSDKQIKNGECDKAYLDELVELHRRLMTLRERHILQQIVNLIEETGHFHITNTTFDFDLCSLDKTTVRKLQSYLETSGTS
Ecoli growth: inhibitors of Escherichia coli growth; AID 1053175; OD600 absorbance (test concentration not listed); hit rate 0.21% among 330,000; OD600, 23 h; stronger effect = lower value;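 active = OD600 absorbance below the run mean of sample wells minus 3.6 SD, in any replicate, cut at about 0.56 in these data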;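 also: stock transfer was 300 nL into about 60 µL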
FGF22 binding: shifts melting point of recombinant human FGF22; Q9HCT0; recombinant FGF22 thermal shift, SYPRO orange fluorescence; percent of sucrose octasulfate shift, DMSO zero; calls only at 9.99 µM; hit rate 1.5% among 340,000; AID 651658;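 active = melting point raised past a set limit in the mean and every replicate; inconclusive = no clear call; three in four hits are not shown here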
Target sequence (Q9HCT0 whole entry, looked up): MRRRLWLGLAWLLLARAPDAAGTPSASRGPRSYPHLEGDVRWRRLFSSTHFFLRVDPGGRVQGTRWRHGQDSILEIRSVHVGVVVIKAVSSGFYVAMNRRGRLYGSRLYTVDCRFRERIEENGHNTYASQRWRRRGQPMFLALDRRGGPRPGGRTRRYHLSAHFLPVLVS
Vif TR-FRET: HIV-1 Vif–A3G interaction blockers – biochemical, TR-FRET, GST-Vif 1-94, biotin-A3G peptide, dose response retest, primary screen (AID 1117319). TR-FRET GST-Vif / biotin-A3G peptide binding; higher % means a stronger effect; test concentration not given here; strong numbers were not always called active. hit rate 0.57% among 260,000. inhibition, %, or IC50 in µM where a hit was titrated;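 active = above the screen mean plus three standard deviations and confirmed in dose response; inconclusive = results disagree or hit not tested in dose response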;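 also: Vif residues 1-94 fused to GST binding biotinylated APOBEC3G peptide 110-148; 0% = full assay without inhibitor and 100% = GST in place of GST-Vif; retest series ran down from 100 µM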
RanGTP-Imp inh: inhibitors of RanGTP-importin-beta interaction, primary screen, biochemical, FRET, CFP-Ran, YFP-importin-beta, homogeneous; cell-free CFP-Ran/YFP-importin-beta FRET ratio; inhibition, % (test concentration not listed); hit rate 1.1% among 300,000;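 active = most replicates above 15%; inconclusive = exactly half above 15%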;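 also: 0% = DMSO wells and 100% = Ran loaded with GDP instead of GTP; wells of about 40 µL received 100 nL stock; the first replicate is given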
UCH37 inh: blocks the human deubiquitinase UCH37 | Q9Y5K5 | purified proteasome/UCH37, Ub-AMC cleavage fluorescence | inhibition, % (no concentration beside the values) | hit rate 0.33% among 330,000 | AID 588478;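 active = mean of two replicates above 20%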;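 also: 0% = compound-free wells with enzyme and 100% = wells lacking proteasome; stock transfer was 100 nL into about 20 µL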
Target sequence (Q9Y5K5 whole entry, looked up): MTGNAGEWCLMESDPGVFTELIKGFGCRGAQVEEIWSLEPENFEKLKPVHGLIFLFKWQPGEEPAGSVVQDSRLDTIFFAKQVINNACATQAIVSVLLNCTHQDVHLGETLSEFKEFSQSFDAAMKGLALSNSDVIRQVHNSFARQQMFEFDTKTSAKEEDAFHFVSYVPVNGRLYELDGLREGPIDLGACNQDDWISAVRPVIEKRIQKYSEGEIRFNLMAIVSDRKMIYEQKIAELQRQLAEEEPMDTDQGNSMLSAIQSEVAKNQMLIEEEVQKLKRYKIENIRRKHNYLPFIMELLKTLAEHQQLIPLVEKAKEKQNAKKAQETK
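Schedule: 30 min plus 25 min, room temperature / Material: human UCH37 within purified proteasomes / Technique: AMC fluorescence intensity at 355/460 nm / Buffer or medium: pH 7.4 Tris-HCl (50 mM) with ovalbumin, ATP-MgCl2, DTT / Controls: wells without proteasome as full block, compound-free enzyme plus substrate as uninhibited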
HNF4A DNA FP: change in binding of human HNF4 alpha to DNA; hit rate 0.3% among 360,000; HNF4a-FITC DNA binding, fluorescence polarization, 1 h; P41235; activity change, % at 10 µM; AID 1224865; in the data active = activity change above about 30%, passing the limit was not always enough;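 also: controls were the assay level and a saturating level of protein; the project sought stronger binding though the title names inhibitors; some compounds called inactive have numbers as strong as hits; positive values seem to mean higher polarization but the record does not say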
Active calls of the source: *; i = inactive; u = inconclusive; x = not tested or not shown; + = active, no number. A portion of the library; rates above refer to the full screens.

SMILES	AF4-AF9 inh	Ecoli growth	FGF22 binding	Vif TR-FRET	RanGTP-Imp inh	UCH37 inh	HNF4A DNA FP
Cc1ccc(NC(=O)CN(C)S(=O)(=O)c2ccc(Cl)s2)c(O)c1	-2.5	0.65	i	-4%	x	1.8	160
O=C1CCCc2sccc2N1	-2.2	0.71	i	-1%	6.0	-0.2	-3.8
COc1ccc(S(=O)(=O)N2CCN(C(=O)Cc3ccsc3)CC2)cc1	-1.9	0.66	i	-4%	x	-0.4	0.3
Cc1cccc(NC(=O)c2cc(S(=O)(=O)N3CCc4ccccc43)cn2C)c1C	0.7	0.75	i	x	1.1	1.8	1.6
CCCCN1C(=O)C(CC(=O)NC2CCCC2)CC(C(=O)N(C)C)=C1C (stereo not given)	-0.2	x	i	2%	x	x	1.1
COC(=O)[C@]1(Cc2ccccc2)N[C@H](CN(C)C(=O)c2ccccc2)[C@@H]2C(=O)N(C)C(=O)[C@@H]21	-1.8	0.69	i	1%	x	-0.2	0.5
COCCn1c(C)cc(/C=N/NC(=O)c2cccnc2)c1C	1.3	x	i	9%	u	x	4.4
COCCCC1CCN(Cc2nc(-c3ccccc3)no2)CC1	0.9	0.7	i	-5%	-1.9	1.6	-3.3
CC1(C)CC(N2CCCC2)=CC(=[N+]2CCCC2)C1	-3.5	0.7	i	29%	u	6.0	1.2
COc1ccc(C(=O)Nc2ccc3[nH]ncc3c2)cc1	-5.8	0.69	i	x	0.0	0.2	0.7
Cc1cc(C)nc(SCC(=O)Nc2ccc(S(=O)(=O)Nc3onc(C)c3C)cc2)n1	-1.0	0.74	i	-3%	1.7	4.6	0.5
COc1cccc(CC(=O)OCC(=O)NNC(=O)c2ccc(Br)cc2)c1	-0.3	0.71	i	5%	x	2.1	-3.1
Cc1ccc(CNC(=O)CCc2c(C)[nH]c(=O)c(C#N)c2C)cc1	-0.3	0.7	i	x	1.3	-3.9	2.3
CC1CCCCN1C(=O)Cn1c(=O)oc2ccccc21 (stereo not given)	x	0.69	x	2%	8.4	0.6	0.1
COC(=O)C1=C(C)N(Cc2cccnc2)C(=O)/C1=C\c1cccs1	16	0.73	i	x	-0.9	5.3	x
Cc1ccc(CNC(=O)c2ccc(CN3CCOCC3)cc2)cc1	x	0.68	x	32%	7.1	0.7	1.3
Cc1ccc2nc(-c3ccccc3NC(=O)CCC(=O)O)c(=O)[nH]c2c1	0.5	0.66	x	x	1.4	-9.1	1.8
CCCNC(=O)COC(=O)/C=C/c1ccc(C)o1	-1.5	0.73	i	x	-1.4	8.8	-4.5
COc1ccc(OC)c(NC(=O)c2ccc3c(=O)n(CCc4ccccc4)c(=S)[nH]c3c2)c1	-2.5	0.68	i	6%	-2.7	2.7	6.2
NS(=O)(=O)c1cc(C(=O)NCCc2ccccn2)ccc1Cl	2.2	0.66	i	15%	3.2	3.5	-0.7
CCOC(=O)c1cc2nc(OCC)nc(OCC)c2[nH]1	-1.5	0.68	i	-4%	x	-20	1.0
O=C(NCCOc1ccc2ccccc2c1)c1cncc(Br)c1	-5.5	0.73	i	27%	-0.7	1.5	4.0
Cc1ccc(S(=O)(=O)N/N=C/c2ccc(O)c(O)c2)cc1[N+](=O)[O-]	-6.3	x	i	24%	0.4	x	2.4
O=C(CSc1nnc(CNc2ccc(F)cc2)o1)N1c2ccccc2Sc2ccccc21	x	0.76	x	1%	x	2.9	-2.5
Nc1nc(SCC(=O)Nc2ccccc2Sc2ccc(Cl)cc2)n[nH]1	x	0.7	x	-11%	0.7	1.4	-0.2
CN1CCC(N2CCN(C3CN(CCc4ccccc4)S(=O)(=O)C3)CC2)CC1 (stereo not given)	-0.4	x	i	x	x	x	2.1
Cn1c(C(=O)NCCN2CCc3ccccc3C2)cc2c(=O)[nH]c3ccccc3c21	x	0.69	x	-5%	3.1	-0.9	-0.8
Cc1cccc(NC(=O)c2ccc(OC3CSC3)cc2)c1	x	0.7	x	-9%	6.5	0.4	-1.8
S=C(NCc1ccccc1)N1CCN(Cc2ccc3c(c2)OCO3)CC1	-6.5	0.7	i	x	1.6	5.3	-6.3
O=C1c2ccccc2C(Nc2ccc(S(=O)(=O)N3CCOCC3)cc2)N1Cc1ccco1 (stereo not given)	1.1	0.73	i	-7%	-1.9	4.4	2.8
CSc1nc(S(=O)(=O)c2ccc(C)cc2)c(N2CCOCC2)s1	-2.9	x	i	0%	x	x	-0.1
COc1ccc(CN(CC(=O)NCc2ccc(F)cc2)C(=O)CCC(=O)Nc2cc(C)ccn2)cc1	-5.1	0.64	i	x	1.7	1.9	-1.4
Cc1cccc2cc3ccccc3nc12	-1.3	0.69	i	x	2.3	-238	0.5
CC(C)C[C@@H]1CN(CCCC[C@H]2CNC(=O)C(=O)N2CCC2CCCCC2)C(=O)C(=O)N1CCC1CCCCC1	0.8	x	i	x	x	x	-6.5
COCCCNCCOCCOc1ccc(Cl)cc1Br	x	0.66	x	-1%	3.8	1.2	2.2
CCOC(=O)CN(C(=O)CSc1nnc(-c2cccc(OC)c2)o1)c1ccc(F)cc1	x	0.64	x	-6%	3.0	4.0	0.6
S=C(Nc1cccc(Cl)c1Cl)N1CCCC1	-6.6	0.64	i	x	x	0.3	0.2
CCOC(=O)Cn1c(S(=O)(=O)Cc2ccc(F)cc2)nc(-c2ccccc2)c1-c1ccccc1	x	0.72	x	-3%	4.1	1.5	-41
COCCNC(=O)C1(C)CCN(C(=O)c2cc(C)n(C(C)(C)C)n2)C1 (stereo not given)	-3.3	x	i	x	x	x	5.7
COc1ccccc1C(=O)N/C(=N/c1nc(C)cc(C)n1)Nc1ccccc1	1.9	x	i	x	0.5	x	1.1
CN(C)CCCNC(=O)c1cc(Br)ccc1O	1.7	0.68	i	9%	-1.8	-57	4.3
COc1ccc(-n2nnc3c(=O)n(CC(=O)Nc4ccc5c(c4)OCCO5)cnc32)cc1OC	-2.8	0.66	i	x	2.4	-17	-0.9
COc1cc2c(cc1OC)CN(CC(=O)Nc1ccc(F)cc1F)CC2	1.4	0.64	i	1%	19*	1.5	-0.9
O=C1C=C(c2ccc3c(c2)oc2ccccc23)C[C@@H](c2ccc3c(c2)OCO3)C1	-1.2	x	i	x	x	2.6	6.2
COc1ccccc1N1CCN(C(=O)c2cc(=O)c3c(C)cc(C)cc3o2)CC1	5.7	0.69	i	9%	1.8	1.6	-0.1
Cc1nc2nc(-c3ccc(Cl)cc3)cn2nc1C	x	x	x	-3%	78*	x	-2.0
Cc1cc(C)c2sc(NC(=O)c3ccc(N4C(=O)CCC4=O)cc3)nc2c1	-0.4	x	i	-30%	-0.2	x	3.1
CC1CCC/C(=N\NC(=O)COc2ccccc2Cl)C1 (stereo not given)	0.0	x	i	25%	u	x	-0.5
Clc1ccc(COc2cccc(CNCc3ccncc3)c2)cc1	3.5	0.66	i	-3%	-0.6	1.2	-5.2
COc1ccc(N2C(=O)c3ccccc3NC23CCCC3)cc1	0.4	0.65	x	-8%	0.0	-164	-3.0
O=C(CN1CCN(c2ccccn2)CC1)N1CCc2ccccc21	-3.8	0.65	i	14%	2.2	1.6	-1.7
O=C(Nc1ccc(F)cc1F)c1cc(-c2ccco2)on1	x	0.68	x	6%	-2.7	1.8	8.0
COc1cc(NC(C)=O)c2ncccc2c1NC(C)=O	-47	0.65	i	12%	0.4	-2.9	2.3
Cc1ccc(F)cc1NC(=O)c1cccc2nccnc12	x	0.77	x	0%	3.1	2.7	-5.5
COc1ccc(N2C(=O)c3ccc(C(=O)OC(C)C)cc3C2=O)cc1	x	0.75	x	x	0.6	1.1	1.7
CSc1cccc(NC(=O)CC(C)n2ccnc2)c1 (stereo not given)	-0.3	0.68	i	-4%	4.6	1.8	0.5
Cc1nn(-c2cccc(Cl)c2)c(Cl)c1/C=N/NC(=O)c1cccs1	3.4	x	i	x	-1.5	x	9.3
CC(=O)c1ccc(Cc2ccc(C(C)=O)cc2)cc1	-0.1	0.71	i	-5%	1.7	2.9	2.1
O=C(COC(=O)c1cc([N+](=O)[O-])ccc1N1CCOCC1)c1ccccc1Cl	-6.2	0.71	i	x	5.3	3.6	-3.9
O=C(NC1CCS(=O)(=O)C1)c1ccc(Br)o1 (stereo not given)	-2.8	0.67	i	3%	2.0	0.7	-0.8

Reformatted: 2 of the compounds above
mol: COc1ccc(S(=O)(=O)N2CCN(C(=O)Cc3ccsc3)CC2)cc1
  AF4-AF9 inh: -1.9; Ecoli growth: 0.66; FGF22 binding: i; Vif TR-FRET: -4%; RanGTP-Imp inh: x; UCH37 inh: -0.4; HNF4A DNA FP: 0.3

mol: Cc1cccc(NC(=O)c2cc(S(=O)(=O)N3CCc4ccccc43)cn2C)c1C
  AF4-AF9 inh: 0.7; Ecoli growth: 0.75; FGF22 binding: i; Vif TR-FRET: x; RanGTP-Imp inh: 1.1; UCH37 inh: 1.8; HNF4A DNA FP: 1.6

More compounds
SMILES	AF4-AF9 inh	Ecoli growth	FGF22 binding	Vif TR-FRET	RanGTP-Imp inh	UCH37 inh	HNF4A DNA FP
Cc1cc(=O)c2c(N(C)C)cccc2[nH]1	32*	x	i	-3%	x	x	-0.5
CC(C(=O)O)n1c2ccccc2c2cn[nH]c(=O)c21 (stereo not given)	-1.9	0.68	i	-6%	u	0.7	1.8
CCCCc1nnc(NC(=O)CN2C(=O)C3CCCCC3C2=O)s1 (stereo not given)	-3.8	0.67	i	-4%	0.4	3.3	-3.1
COc1ccc(NC(=O)c2cc(-c3ccc(F)cc3OC)n[nH]2)cc1OC	-0.8	x	i	x	x	x	-2.4
COc1ccccc1-c1cc(C(=O)NCc2ccco2)no1	x	0.7	x	-2%	1.5	1.6	-4.3
CCOC(=O)c1c[nH]n2c(=O)cc(C)nc12	0.4	0.7	i	x	-0.1	-1.5	1.4
Cc1ccc(S(=O)(=O)N2CC=C(c3ccc(F)cc3)CC2)cc1	x	0.69	x	-3%	1.8	1.4	-3.6
CCCCCN(C(=O)CCC(=O)OCC(=O)NCc1cccc(OC)c1)c1c(N)n(CCCC)c(=O)[nH]c1=O	-1.4	0.66	i	x	u	3.1	0.9
CC(C)Nc1nc(NCCN2CCNC2=O)c2sccc2n1	0.1	x	i	x	x	x	-2.2
Nc1c(C(=O)Nc2ccc3c(c2)OCCO3)nnn1Cc1ccc(Cl)cc1	-2.0	0.69	i	0%	-1.2	-7.0	1.3
Cc1ccc(/C=C/c2nc3ccccc3c(=O)[nH]2)cc1	-0.9	0.72	i	-3%	1.0	-94	1.5
CC1(C)Cc2cccc(Oc3ccc(S(=O)(=O)N4CCCC4)cn3)c2O1	-0.4	0.72	i	-1%	-2.7	2.7	-1.1
CC(C)(C)c1ccc(C(=O)NCCCN2CCN(CCCNC(=O)c3ccc(C(C)(C)C)cc3)CC2)cc1	x	0.69	x	-12%	2.7	-0.7	-0.1
Cc1cc2ccccc2c(=O)n1CC(=O)NCc1ccco1	x	0.72	x	-2%	-5.1	-9.0	-3.5
COc1ccccc1CNC(=O)CSC(=S)N1CCCC1	-1.0	0.71	i	0%	1.4	-1.0	-2.2
Cc1cc(C)n(-c2ccc(C(=O)Nc3cccc([N+](=O)[O-])c3)cc2)n1	0.5	0.68	i	-8%	6.8	3.9	4.7
COC(=O)C1=C(CS(=O)(=O)c2ccccc2)NC(=O)NC1c1ccccc1 (stereo not given)	5.8	0.67	i	2%	9.1	0.4	-1.1
COc1cc(NC(=O)C2CCC(CNS(=O)(=O)c3csc(C(N)=O)c3)CC2)cc(OC)c1 (stereo not given)	-1.4	0.7	+	x	-2.1	2.8	-3.7

Source: PubChem (several laboratories)
